Bioassay records deposited in PubChem by Broad Institute.
FGF22 binding = binders of human FGF22 protein, primary screen, FGF22 synaptogenesis inhibitor project, biophysical, thermal shift, single point; calls only at 9.99 µM; hit rate 1.5% among 340,000; Fibroblast growth factor 22 (Homo sapiens), Q9HCT0; recombinant FGF22 thermal shift, SYPRO orange fluorescence; percent of sucrose octasulfate shift, DMSO zero;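 active means melting point raised past a set limit in the mean and every replicate; three in four hits are not shown here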
Target sequence (Q9HCT0 whole entry, looked up): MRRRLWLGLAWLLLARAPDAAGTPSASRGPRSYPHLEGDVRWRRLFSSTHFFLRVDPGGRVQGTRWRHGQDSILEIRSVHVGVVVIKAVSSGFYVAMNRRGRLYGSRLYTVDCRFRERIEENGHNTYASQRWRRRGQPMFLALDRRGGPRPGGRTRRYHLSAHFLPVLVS
MLL AF4-AF9 inh = inhibitors of AF4 peptide binding to AF9, primary screen, biochemical, AlphaScreen, biotin-AF4 peptide, FLAG-AF9, single point; inhibition, % at 10 µM; hit rate 0.47% among 350,000;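 active means every replicate reaching a set inhibition limit, whatever the replicate mean, cut at about 25% in these data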;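 further: 0% = plate neutral control median and 100% = total signal loss; the record names both 10 and 1 µM as test concentration; the first replicate is given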
Target sequence (P42568 whole entry, looked up): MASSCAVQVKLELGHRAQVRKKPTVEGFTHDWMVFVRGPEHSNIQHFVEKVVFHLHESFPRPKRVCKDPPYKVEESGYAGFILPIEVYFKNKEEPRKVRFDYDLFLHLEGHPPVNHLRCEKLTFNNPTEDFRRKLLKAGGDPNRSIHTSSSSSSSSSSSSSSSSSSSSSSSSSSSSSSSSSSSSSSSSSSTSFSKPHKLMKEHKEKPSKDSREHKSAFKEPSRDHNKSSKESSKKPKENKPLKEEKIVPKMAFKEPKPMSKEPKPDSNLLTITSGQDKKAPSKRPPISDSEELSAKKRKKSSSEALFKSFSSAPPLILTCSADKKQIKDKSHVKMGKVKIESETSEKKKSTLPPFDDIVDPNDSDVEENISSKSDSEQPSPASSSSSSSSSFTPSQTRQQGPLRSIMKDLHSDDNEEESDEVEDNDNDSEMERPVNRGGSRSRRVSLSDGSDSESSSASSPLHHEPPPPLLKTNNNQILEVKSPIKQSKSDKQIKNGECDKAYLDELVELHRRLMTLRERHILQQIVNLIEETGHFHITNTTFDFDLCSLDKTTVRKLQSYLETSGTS
* hit, by the source's call. Not all compounds are listed (hit frequency here may not be typical).

Start of the listing, in advance, 2 compounds:
Screening C[C@@H]1CN([C@@H](C)CO)C(=O)c2cc(C#CCc3ccccc3)cnc2O[C@@H]1CN(C)C(=O)Cc1cccnc1 returned FGF22 binding inactive and MLL AF4-AF9 inh -16.3.
Screening COc1ccccc1S(=O)(=O)N[C@@H]1CC[C@@H](CCNC(=O)C2CCC2)O[C@@H]1CO returned FGF22 binding inactive and MLL AF4-AF9 inh -12.6.

Results, repeating the preview:
Screening C[C@@H]1CN([C@@H](C)CO)C(=O)c2cc(C#CCc3ccccc3)cnc2O[C@@H]1CN(C)C(=O)Cc1cccnc1 returned FGF22 binding inactive and MLL AF4-AF9 inh -16.3.
Screening COc1ccccc1S(=O)(=O)N[C@@H]1CC[C@@H](CCNC(=O)C2CCC2)O[C@@H]1CO returned FGF22 binding inactive and MLL AF4-AF9 inh -12.6.
CO[C@@H]1CN(C)C(=O)c2cc(NS(C)(=O)=O)ccc2OC[C@@H](C)N(C(=O)C2CCCCC2)C[C@@H]1C was read as FGF22 binding inactive and MLL AF4-AF9 inh -0.3.
For C[C@@H]1CN([C@@H](C)CO)C(=O)Cc2cc(NS(C)(=O)=O)ccc2O[C@H]1CN(C)CC1CC1 the results were FGF22 binding inactive and MLL AF4-AF9 inh -4.6.
Screening CCCNC(=O)C[C@H]1CC[C@@H]2[C@H](COc3ccc(NC(=O)c4cc(C)on4)cc3C(=O)N2C)O1 returned FGF22 binding inactive and MLL AF4-AF9 inh -8.9.
For CCOC(=O)N1CCN(C(=O)C[C@H]2C[C@@]3(C(=O)OC)C(=C[C@H](C(C)(C)C)O[C@@H]3C)N(Cc3ccccc3)C2=O)CC1 the results were FGF22 binding inactive and MLL AF4-AF9 inh 1.3.
For CCC(=O)Nc1ccc2c(c1)C(=O)N(C)C[C@@H](OC)[C@H](C)CN(Cc1cc(-c3ccccc3)on1)[C@H](C)CO2 the results were FGF22 binding inactive and MLL AF4-AF9 inh 2.6.
For C[C@@H]1CCCCO[C@@H](CN(C)C(=O)Cc2ccccc2)[C@@H](C)CN([C@H](C)CO)C(=O)c2cc(NC(=O)Nc3ccccc3)ccc2O1 the results were FGF22 binding inactive and MLL AF4-AF9 inh -0.7.
For CCC(=O)N1C[C@H](C)[C@H](OC)CN(C)C(=O)c2ccc(NC(=O)COC)cc2OC[C@@H]1C the results were FGF22 binding inactive and MLL AF4-AF9 inh -2.0.
Screening COc1ccc(C#Cc2cccc(-c3nc(C(=O)NCc4ccc5c(c4)OCO5)cc4c3[C@@H](CCO)N(S(=O)C(C)(C)C)C4)c2)cc1OC (stereo not given in full) returned FGF22 binding inactive and MLL AF4-AF9 inh 0.3.
C[C@H](CO)N1C[C@H](C)[C@H](CN(C)S(=O)(=O)c2cccs2)Oc2c(NS(=O)(=O)c3cn(C)cn3)cccc2C1=O was read as FGF22 binding inactive and MLL AF4-AF9 inh -1.7.
For C[C@@H]1CN([C@@H](C)CO)C(=O)CCCn2nncc2CO[C@@H]1CN(C)C(=O)Nc1ccc(F)cc1 the results were FGF22 binding inactive and MLL AF4-AF9 inh -1.0.
CN1CCN(C(=O)C[C@H]2C[C@H]3c4cc(NC(=O)Nc5ccc(F)cc5)ccc4O[C@H]3[C@@H](CO)O2)CC1 was read as FGF22 binding inactive and MLL AF4-AF9 inh 1.3.
For C[C@@H]1CN([C@@H](C)CO)C(=O)c2cccc(NC(=O)C3CC3)c2O[C@H]1CN(C)Cc1ccc(Cl)c(Cl)c1 the results were FGF22 binding inactive and MLL AF4-AF9 inh 2.7.
Cc1noc(C)c1NC(=O)Nc1cccc2c1O[C@@H](CN(C)Cc1ccc(Oc3ccccc3)cc1)[C@@H](C)CN([C@@H](C)CO)C2=O was read as FGF22 binding inactive and MLL AF4-AF9 inh -0.9.
Screening C[C@H](CO)N1C[C@H](C)[C@H](CN(C)Cc2ccc3c(c2)OCO3)OCCCC[C@H](C)Oc2ccc(NC(=O)CCC(F)(F)F)cc2C1=O returned FGF22 binding inactive and MLL AF4-AF9 inh -0.1.
Screening CO[C@@H]1CN(C)C(=O)c2cc(NC(=O)c3cnccn3)ccc2OC[C@@H](C)N(C(C)=O)C[C@@H]1C returned FGF22 binding inactive and MLL AF4-AF9 inh -2.7.
Screening C[C@@H]1CN([C@H](C)CO)S(=O)(=O)c2ccc(-c3ccc(C(=O)N(C)C)cc3)cc2O[C@H]1CN(C)C returned FGF22 binding inactive and MLL AF4-AF9 inh -2.6.
Screening O=C(C[C@@H]1C=C[C@H](NC(=O)CN2CCOCC2)[C@H](CO)O1)NC1CCCCC1 returned FGF22 binding inactive and MLL AF4-AF9 inh -2.5.
`CCC(=O)N1CC2(C1)[C@@H](c1ccc(-c3ccc(F)cc3)cc1)[C@@H](CO)N2S(C)(=O)=O` gave FGF22 binding inactive and MLL AF4-AF9 inh 2.8.

Some of these compounds in order of molecular weight, smallest number first:
For CCC(=O)N1C[C@H](C)[C@H](OC)CN(C)C(=O)c2ccc(NC(=O)COC)cc2OC[C@@H]1C the results were FGF22 binding inactive and MLL AF4-AF9 inh -2.0.
Screening C[C@@H]1CN([C@H](C)CO)S(=O)(=O)c2ccc(-c3ccc(C(=O)N(C)C)cc3)cc2O[C@H]1CN(C)C returned FGF22 binding inactive and MLL AF4-AF9 inh -2.6.
For CCC(=O)Nc1ccc2c(c1)C(=O)N(C)C[C@@H](OC)[C@H](C)CN(Cc1cc(-c3ccccc3)on1)[C@H](C)CO2 the results were FGF22 binding inactive and MLL AF4-AF9 inh 2.6.
Screening C[C@H](CO)N1C[C@H](C)[C@H](CN(C)Cc2ccc3c(c2)OCO3)OCCCC[C@H](C)Oc2ccc(NC(=O)CCC(F)(F)F)cc2C1=O returned FGF22 binding inactive and MLL AF4-AF9 inh -0.1.

(listing goes on)
CSc1cccc(NC(=S)NN/C(=N/S(=O)(=O)c2ccccc2)N2CCCC2)c1 was read as FGF22 binding inactive and MLL AF4-AF9 inh -2.4.
Screening O=S(=O)(N[C@@H]1CC[C@H](CCn2cc(-c3cccc(F)c3)nn2)O[C@@H]1CO)c1ccccc1 returned FGF22 binding inactive and MLL AF4-AF9 inh -1.2.
Cc1ccc(S(=O)(=O)Nc2cccc3c2O[C@@H](CN(C)Cc2ccc(C(=O)Nc4ccccc4N)cc2)[C@@H](C)CN([C@H](C)CO)C3=O)cc1 was read as FGF22 binding inactive and MLL AF4-AF9 inh 0.8.
Screening CCCC(=O)Nc1ccc2c(c1)C(=O)N(C)C[C@H](OC)[C@H](C)CN(C(=O)CC1CC1)[C@H](C)CO2 returned FGF22 binding inactive and MLL AF4-AF9 inh 0.8.
`CN(C)C(=O)C[C@H]1C[C@H]2c3cc(NC(=O)c4cccnc4)ccc3O[C@H]2[C@H](CO)O1` gave FGF22 binding inactive and MLL AF4-AF9 inh 1.4.
Screening COc1ccccc1C#Cc1ccc2c(c1)O[C@H](CN(C)Cc1ccccc1)[C@@H](C)CN([C@H](C)CO)S2(=O)=O returned FGF22 binding inactive and MLL AF4-AF9 inh -1.3.
`CC(C)NC(=O)N1CCCCN2[C@H](CO)[C@H](c3ccc(Br)cc3)[C@H]2C1` gave FGF22 binding inactive and MLL AF4-AF9 inh -4.4.
For N#Cc1ccc(S(=O)(=O)N2CCCc3nc(-c4ccc(F)cc4)ccc32)cc1 the results were FGF22 binding inactive and MLL AF4-AF9 inh -1.4.
Screening C[C@@H]1CCCCO[C@H](CN(C)C(=O)NC2CCCCC2)[C@H](C)CN([C@@H](C)CO)C(=O)c2cc(NS(=O)(=O)c3cccs3)ccc2O1 returned FGF22 binding inactive and MLL AF4-AF9 inh -1.4.
Screening Cc1ccc(S(=O)(=O)N(C)C[C@@H]2Oc3ccc(NC(=O)CCN4CCOCC4)cc3C(=O)N([C@@H](C)CO)C[C@@H]2C)cc1 returned FGF22 binding inactive and MLL AF4-AF9 inh -1.5.
Screening C[C@@H]1CCCCO[C@@H](CN(C)C(=O)C2CCCCC2)[C@H](C)CN([C@H](C)CO)C(=O)c2cc(NC(=O)c3ccccc3)ccc2O1 returned FGF22 binding inactive and MLL AF4-AF9 inh -0.2.
`O=C([C@H]1[C@H](CO)[C@H]2Cn3c(cccc3=O)[C@H]2N1Cc1cc(F)ccc1F)N1CCOCC1` gave FGF22 binding inactive and MLL AF4-AF9 inh -3.4.
`O=C(CN1CCOCC1)NCC[C@@H]1CC[C@H](NS(=O)(=O)c2ccc(Cl)cc2)[C@@H](CO)O1` gave FGF22 binding inactive and MLL AF4-AF9 inh 1.4.
C[C@@H]1CN([C@@H](C)CO)C(=O)c2cc(C#Cc3ccc(F)cc3)cnc2O[C@H]1CN(C)C(=O)c1ccccc1F was read as FGF22 binding inactive and MLL AF4-AF9 inh -0.2.
Screening CNC[C@H]1OCCCC[C@@H](C)Oc2ccc(NC(=O)CCC(F)(F)F)cc2C(=O)N([C@H](C)CO)C[C@H]1C returned FGF22 binding inactive and MLL AF4-AF9 inh 4.1.
Screening C[C@@H]1CN([C@@H](C)CO)C(=O)c2cc(C#Cc3cccnc3)cnc2O[C@H]1CN(C)Cc1ccccc1 returned FGF22 binding inactive and MLL AF4-AF9 inh -1.3.
Screening Cc1noc(C)c1S(=O)(=O)Nc1ccc2c(c1)C(=O)N([C@H](C)CO)C[C@@H](C)[C@H](CN(C)C(=O)NC1CCCCC1)O2 returned FGF22 binding inactive and MLL AF4-AF9 inh -12.5.
For CCS(=O)(=O)N[C@H]1CC[C@H](CC(=O)NCc2ccc(F)cc2)O[C@H]1CO the results were FGF22 binding inactive and MLL AF4-AF9 inh 0.2.
C[C@@H]1CCCCO[C@@H](CN(C)CC2CC2)[C@@H](C)CN([C@H](C)CO)C(=O)c2cc(NC(=O)c3ccccc3)ccc2O1 was read as FGF22 binding inactive and MLL AF4-AF9 inh -0.4.
C[C@@H]1CN([C@H](C)CO)C(=O)c2cc(C#CCc3ccccc3)cnc2O[C@H]1CN(C)CC1CCOCC1 was read as FGF22 binding inactive and MLL AF4-AF9 inh 0.4.
For CN(C)CC(=O)N1[C@@H]2c3ccc(-c4ccccc4)c(=O)n3C[C@H]1[C@H](CO)[C@H]2C(=O)N1CCN(C)CC1 the results were FGF22 binding inactive and MLL AF4-AF9 inh -7.5.
For C[C@@H]1CN([C@@H](C)CO)C(=O)CCCn2nncc2CO[C@@H]1CN(C)C(=O)Nc1cccc(F)c1 the results were FGF22 binding inactive and MLL AF4-AF9 inh -0.6.
For Cc1noc(C)c1NC(=O)N(C)C[C@@H]1Oc2ccc(NC(=O)Cc3cn(C)c4ccccc34)cc2CC(=O)N([C@@H](C)CO)C[C@@H]1C the results were FGF22 binding inactive and MLL AF4-AF9 inh -1.7.
C[C@@H](NC(=O)C[C@@H]1C[C@H]2c3cc(NC(=O)CN(C)C)ccc3O[C@H]2[C@H](CO)O1)c1ccccc1 was read as FGF22 binding inactive and MLL AF4-AF9 inh 1.2.
`CC(C)[C@@H](C)/C=C/[C@@H](C)[C@H]1CC[C@@H]2[C@]1(C)CCC1[C@]23C=C[C@]2(C[C@@H](O)CC[C@]12C)N(c1cnccn1)O3` (stereo not given in full) gave FGF22 binding inactive and MLL AF4-AF9 inh 3.6.
For O=C(Nc1ccccc1)N1CCCCN2[C@H](CO)[C@@H](c3ccc(-c4ccccc4)cc3)[C@@H]2C1 the results were FGF22 binding inactive and MLL AF4-AF9 inh -2.7.
`C[C@@H]1CCCCO[C@@H](CN(C)C(=O)CCC(F)(F)F)[C@@H](C)CN([C@H](C)CO)C(=O)c2cc(NC(=O)Nc3ccc(F)cc3)ccc2O1` gave FGF22 binding inactive and MLL AF4-AF9 inh 5.5.
For C[C@H]1CN([C@@H](C)CO)C(=O)c2cc(NC(=O)CCN3CCOCC3)ccc2O[C@@H]1CN(C)Cc1ccc(C(F)(F)F)cc1 the results were FGF22 binding inactive and MLL AF4-AF9 inh -1.4.
`Cc1noc(C)c1NC(=O)Nc1cccc2c1O[C@H](CN(C)Cc1ccc3c(c1)OCO3)[C@H](C)CN([C@@H](C)CO)C2=O` gave FGF22 binding inactive and MLL AF4-AF9 inh -2.0.
`C[C@H](CO)N1C[C@H](C)[C@@H](CN(C)Cc2ccc(C(=O)Nc3ccccc3N)cc2)Oc2ccc(NC(=O)Cn3cnnn3)cc2CC1=O` gave FGF22 binding inactive and MLL AF4-AF9 inh 0.0.
For COCC#Cc1ccc2c(c1)O[C@@H](CN(C)CC1CCCC1)[C@H](C)CN([C@H](C)CO)S2(=O)=O the results were FGF22 binding inactive and MLL AF4-AF9 inh 4.7.
Screening O=C(N[C@@H]1CC[C@H](CCNC(=O)C2CCCC2)O[C@H]1CO)c1ccccn1 returned FGF22 binding inactive and MLL AF4-AF9 inh -1.5.
Screening COc1cccc(NC(=O)N[C@@H]2C=C[C@H](CC(=O)N3CCCCC3)O[C@H]2CO)c1 returned FGF22 binding inactive and MLL AF4-AF9 inh -3.6.
For CO[C@@H]1CN(C)C(=O)c2cc(NC(=O)C3CC3)ccc2OC[C@H](C)NC[C@H]1C the results were FGF22 binding inactive and MLL AF4-AF9 inh -1.6.
C[C@H]1CN([C@@H](C)CO)C(=O)c2cc(NC(=O)Nc3ccc4c(c3)OCO4)ccc2O[C@@H]1CN(C)CC1CCCCC1 was read as FGF22 binding inactive and MLL AF4-AF9 inh 11.6.
`C[C@@H]1CN([C@H](C)CO)C(=O)c2cccc(NC(=O)C3CCOCC3)c2O[C@H]1CN(C)Cc1ccccc1` gave FGF22 binding inactive and MLL AF4-AF9 inh 0.7.
COc1ccc(C(=O)Nc2ccc3c(c2)C(=O)N(C)[C@H]2CC[C@@H](CC(=O)NCC4CC4)O[C@@H]2CO3)cc1 was read as FGF22 binding inactive and MLL AF4-AF9 inh -1.5.
`Cc1ccc(S(=O)(=O)Nc2cccc3c2O[C@@H](CN(C)C(=O)Nc2ccc(F)cc2)[C@@H](C)CN([C@H](C)CO)C3=O)cc1` gave FGF22 binding inactive and MLL AF4-AF9 inh -1.2.
For Cc1cccc(S(=O)(=O)N2C[C@H]3[C@@H](c4ccccc42)[C@@H](CO)N3Cc2cccnc2)c1 the results were FGF22 binding inactive and MLL AF4-AF9 inh 0.8.
